HNF4A DNA FP: change in binding of human HNF4 alpha to DNA | P41235 | HNF4a-FITC DNA binding, fluorescence polarization, 1 h | activity change, % at 10 µM | 0.3% of 360,000 active | AID 1224865; in the data active means activity change above about 30%, passing the limit was not always enough;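 further: controls were the assay level and a saturating level of protein; the project sought stronger binding though the title names inhibitors; some compounds called inactive have numbers as strong as hits; positive values seem to mean higher polarization but the record does not say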
B2AR ag: activates human beta-2 adrenergic receptor causing internalization; P07550; Am2.2-beta2AR cells, FAP receptor internalization, flow cytometry; reference of the scale not given here; response, % (no concentration beside the values); 0.43% of 340,000 active;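 active means response above a set limit, near 3 SD of response in nonfluorescent compounds, cut at about 42% in these data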;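 further: stock transfer was 100 nL into about 11 µL; a reference agonist was the positive control; negative values mostly stem from fluorescent compounds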
Target sequence (P07550 whole entry, looked up): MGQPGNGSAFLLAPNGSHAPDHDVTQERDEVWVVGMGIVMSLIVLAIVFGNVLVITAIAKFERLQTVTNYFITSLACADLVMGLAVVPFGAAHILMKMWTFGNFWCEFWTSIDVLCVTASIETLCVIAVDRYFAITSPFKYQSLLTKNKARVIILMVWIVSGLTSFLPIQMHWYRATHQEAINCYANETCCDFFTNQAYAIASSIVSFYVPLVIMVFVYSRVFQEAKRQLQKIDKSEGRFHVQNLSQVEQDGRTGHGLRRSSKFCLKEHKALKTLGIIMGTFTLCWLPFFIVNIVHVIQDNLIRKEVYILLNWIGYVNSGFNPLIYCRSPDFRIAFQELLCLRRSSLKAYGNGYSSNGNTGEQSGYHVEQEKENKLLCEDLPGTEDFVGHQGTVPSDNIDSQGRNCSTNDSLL
LANA-H2A inh: blocks KSHV LANA binding to histone H2A/H2B. inhibition, % (test concentration not listed). cell-free LANA-H2A/H2B peptide, fluorescence polarization. 0.6% of 320,000 active. Q9QR71; in the data active means inhibition mostly above about 10%, no sharp cut-off; inactive means mostly below about 6.7%;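 further: stock transfer was 7.5 nL into about 10 µL; 0% = median of vehicle wells and 100% = median of positive control wells; one replicate is shown; the record names a cut of 25% in any replicate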
Ecoli growth: inhibitors of Escherichia coli growth; 0.21% of 330,000 active; OD600, 23 h; hits give low values; OD600 absorbance (no concentration beside the values); AID 1053175;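 active means OD600 absorbance below the run mean of sample wells minus 3.6 SD, in any replicate, cut at about 0.56 in these data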;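 further: stock transfer was 300 nL into about 60 µL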
ALR inh: blocks human ALR sulfhydryl oxidase activity; 3.8% of 290,000 active; P55789; purified ALR, DTT oxidation, H2O2 HRP-luminol luminescence; AID 485317; inhibition, % (no concentration beside the values);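 active means mean and each replicate at 75% or more; inconclusive means only one of the two met; inactive means neither met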;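 further: stock transfer was 7.5 nL into about 7.5 µL; 0% = neutral wells and 100% = wells with inactivated enzyme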
Target sequence (P55789 whole entry, looked up): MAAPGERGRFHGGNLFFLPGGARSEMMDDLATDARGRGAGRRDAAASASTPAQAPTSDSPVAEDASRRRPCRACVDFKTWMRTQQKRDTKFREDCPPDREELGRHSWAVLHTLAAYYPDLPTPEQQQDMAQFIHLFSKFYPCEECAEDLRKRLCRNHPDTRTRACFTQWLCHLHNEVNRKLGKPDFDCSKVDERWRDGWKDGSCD
UCH37 inh: human UCH37 deubiquitinating enzyme inhibition. inhibition, % (no concentration beside the values). Q9Y5K5. purified proteasome/UCH37, Ub-AMC cleavage fluorescence. 0.33% of 330,000 active. AID 588478;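 active means mean of two replicates above 20%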;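 further: 0% = compound-free wells with enzyme and 100% = wells lacking proteasome; stock transfer was 100 nL into about 20 µL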
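Signal – fluorescence, ex 355 nm, em 460 nm · System – Proteasome-bound UCH37 · Input – 0.15 nM proteasome as dispensed · Timing – 30 min preincubation with enzyme, 25 min cleavage at room temperature · Read-out basis – percent inhibition of cleavage signal versus uninhibited and no-proteasome wells · Medium – Tris-HCl pH 7.4 with ATP-MgCl2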
FGF22 binding: binders of recombinant human FGF22 by thermal shift; 1.5% of 340,000 active; SYPRO orange fluorescence; percent of sucrose octasulfate shift, DMSO zero; AID 651658; Q9HCT0; calls only at 9.99 µM;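 active means melting point raised past a set limit in the mean and every replicate; inconclusive means no clear call; three in four hits are not shown here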
Target sequence (Q9HCT0 whole entry, looked up): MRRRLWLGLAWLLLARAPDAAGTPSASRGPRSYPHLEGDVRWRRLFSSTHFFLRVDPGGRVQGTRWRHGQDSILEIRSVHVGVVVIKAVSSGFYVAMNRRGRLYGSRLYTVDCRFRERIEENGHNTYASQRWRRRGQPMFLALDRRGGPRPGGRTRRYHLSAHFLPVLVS
Starred values were filed as active, the others as inactive; i = inactive; u = inconclusive; x = no result given; + = active, no number. Some of the compounds tested (hit frequency here may not be typical).

HNF4A DNA FP	B2AR ag	LANA-H2A inh	Ecoli growth	ALR inh	UCH37 inh	FGF22 binding	canonical_smiles
-1.2	-3	-1.2	x	-7	x	i	O=C(CCNC(=O)c1ccco1)NCc1ccc(F)cc1
3.7	-12	11*	0.69	-10	4.9	i	CC(C)Cn1c(CCCNC(=O)c2ccc(F)cc2)nc2ccccc21
-0.3	-25	1.4	0.69	-28	0.3	i	Cc1nnc(NC(=O)c2csc3c2CCC(C)C3)s1 (stereo unspecified)
-2.6	-15	-1.1	0.68	1	3.1	x	CCC(=O)Nc1ccc(C(=O)CSc2nnc(CNc3ccc(Cl)cc3)o2)cc1OC
3.7	-8	2.8	x	-9	0.4	x	C#CCOCCOCCOCCNc1nc(N2CCN(C(=O)[C@H](CCCCN)n3cc(C(N)CC(C)C)nn3)CC2)nc(N2CCN(C(=O)[C@H](CCC(=O)O)n3cc(C(N)[C@H](C)CC)nn3)CC2)n1 (stereo partly specified)
-0.2	-8	-3.6	0.71	99*	4.4	i	CCN(CCNC(=O)c1cc(C)nn1-c1ccccc1)c1ccccc1
-2.1	1	-2.0	0.66	-3	6.5	x	O=C1CSC(c2ccc([N+](=O)[O-])cc2)N1c1ccc(O)cc1 (stereo unspecified)
0.5	-4	4.1	0.69	-1	1.9	x	c1csc(-c2nc(-c3ccncc3)no2)c1
2.1	-14	-2.0	0.7	13	1.8	x	CCCCOC(=O)C1=C(C)Nc2ncnn2C1c1ccc(OC)c(OC)c1OC (stereo unspecified)
4.9	9	2.1	0.66	x	0.6	i	CC(=O)NCc1ccc(-c2csc(NC(=O)CCc3nc4ccccc4c(=O)[nH]3)n2)s1
6.0	17	x	x	x	x	i	CC(=O)C1CCC2C3CC=C4CC(SC(=N)N)CCC4(C)C3CCC12C (stereo unspecified)
3.2	-2	-1.6	0.69	12	3.5	x	Cc1cc(C)n(-c2nc(NC(C)C)nc(NC(C)C)n2)n1
1.2	-3	0.3	0.65	-4	3.7	x	O=c1cc(NCCCO)c2ccccc2o1
-1.7	-3	-2.5	0.67	99*	2.2	x	O=C(NCC(c1cccnc1)N1CCN(c2ccccc2)CC1)c1ccco1 (stereo unspecified)
4.5	0	-2.5	0.74	-10	1.3	x	O=C(NCc1ccccc1)c1ccco1
0.2	-1	-3.4	0.69	-1	4.1	i	O=C(N/C(=C/c1ccccc1)C(=O)N1CCCCC1)c1ccccc1
6.2	2	7.3	0.69	2	-0.4	x	C[C@H](NC(=O)NCc1cccs1)C(=O)O
-0.5	4	-2.1	0.68	-11	-62	i	COC(=O)C1=CN(Cc2ccccc2)C=C(C(=O)OC)C1c1ccc(O)c(OC)c1
8.2	6	0.6	0.66	u	6.4	+	Cc1noc(NS(=O)(=O)c2ccc(NC(=O)/C=C/c3ccccc3)cc2)c1C
-3.8	-6	3.5	0.6	x	2.2	i	C=CCn1c(=O)c2ccccc2n2c(SCC(=O)NC)nnc12

At a glance, 3 of the compounds above:
HNF4A DNA FP	B2AR ag	LANA-H2A inh	Ecoli growth	ALR inh	UCH37 inh	FGF22 binding	canonical_smiles
0.2	-1	-3.4	0.69	-1	4.1	i	O=C(N/C(=C/c1ccccc1)C(=O)N1CCCCC1)c1ccccc1
6.2	2	7.3	0.69	2	-0.4	x	C[C@H](NC(=O)NCc1cccs1)C(=O)O
-0.5	4	-2.1	0.68	-11	-62	i	COC(=O)C1=CN(Cc2ccccc2)C=C(C(=O)OC)C1c1ccc(O)c(OC)c1

Carrying on:
HNF4A DNA FP	B2AR ag	LANA-H2A inh	Ecoli growth	ALR inh	UCH37 inh	FGF22 binding	canonical_smiles
-3.1	-14	0.6	0.66	12	2.7	i	O=c1[nH]c(CSc2ncc(C(F)(F)F)cc2Cl)nc2ccccc12
3.0	-2	0.0	0.7	-8	4.5	i	CC1CCCN(S(=O)(=O)Cc2ccc(Cl)cc2)C1 (stereo unspecified)
-0.7	-1	-0.2	0.62	x	1.5	i	Cc1ccc([N+](=O)[O-])cc1NC(=O)c1cccnc1
2.2	0	8.9	0.67	-3	2.4	i	COc1ccccc1/C=C1\SC(=S)N(CCC(=O)NNC(=O)c2ccccc2OC)C1=O
0.9	-5	-3.8	0.73	2	4.4	i	CCOc1ccc2nc(N3CCCC(C(=O)NCCCN4CCOCC4)C3)sc2c1 (stereo unspecified)
-2.6	2	1.1	0.67	-14	0.3	x	CCn1c(=O)cc(OCC(=O)NC(C)c2ccc3c(c2)OCCO3)c2ccccc21 (stereo unspecified)
3.2	-2	-3.2	0.65	-7	1.3	i	S=C1NCN(CCc2ccccc2)CN1
3.6	-2	1.3	0.72	0	3.3	i	O=C(CN1CCCN(Cc2ccc(F)cc2Cl)C1=O)NC1CCCCCC1
-0.3	10	8.0	0.65	-12	6.1	i	O=[N+]([O-])c1ccc2ncnc(N3CCN(Cc4ccc5c(c4)OCO5)CC3)c2c1
1.2	-8	-2.0	0.67	x	-64	i	Cc1ccc2nc(NC(=O)c3ccccc3F)sc2c1
-2.2	3	-3.5	0.7	x	0.5	i	O=C(NC1CCCC1)C(NS(=O)(=O)c1ccc(Br)s1)c1ccccc1 (stereo unspecified)
0.6	-4	2.5	0.72	98*	-0.3	i	O=C(NCC(c1ccco1)N1CCc2ccccc21)c1ccccc1F (stereo unspecified)
0.7	3	0.5	0.71	-6	1.7	x	O=C(CSCc1ccccc1)Nc1ccc2c(c1)OCO2
-2.0	-8	3.8	0.67	0	1.6	i	COc1ccc(CCNC(=O)c2cccs2)cc1
2.7	-4	2.5	0.67	-2	0.3	i	COc1cc2c(cc1OC)C(=O)NCC(C)(C)O2
-0.6	-4	-1.7	0.71	1	-83	i	CCCc1cc(=O)oc2cc(C)cc(OCC(=O)NCCN3CCOCC3)c12
0.9	1	0.4	0.68	1	1.7	i	C=C(C)Cn1c(CCn2c3ccccc3c3ccccc32)n[nH]c1=S
2.6	-24	4.1	0.65	-21	5.5	i	c1csc(-c2nnc(N3CCOCC3)c3ccccc23)c1
0.1	-1	-5.0	0.68	-10	9.8	i	COc1ccccc1NC(=O)c1ccccc1C(=O)O
-2.3	-3	-20	0.71	x	5.5	i	Cc1ccc(C(=O)NNC(=O)CSc2nnc(C3CC3)n2C)cc1
-3.2	-4	-1.6	0.7	x	3.3	x	COc1cc(NC(=O)c2ccc(F)cc2)c(OC)cc1Cl
1.0	1	-1.5	0.72	1	1.8	i	COC(=O)C1=C(C)N(c2ccc(OC)cc2)C(C)=C(C(=O)OC)C1c1ccc(OC)cc1
-0.3	4	2.8	0.66	11	3.0	x	Cc1cc(C)cc(C(=O)OCC(=O)Nc2cccc(S(=O)(=O)NC3=NCCCCC3)c2)c1
1.8	24	-2.7	0.64	-2	2.3	i	CCOC(=O)c1cnc2ccc(C)cc2c1N(C)Cc1ccccc1
3.1	9	2.2	0.69	2	3.7	i	CC(C)N1C(=O)CSC1c1ccc(Br)cc1 (stereo unspecified)
3.1	9	-0.5	0.7	0	3.2	i	CNS(=O)(=O)c1cccc(C(=O)OCC(=O)Nc2cc(F)ccc2F)c1
2.4	5	2.7	0.72	x	3.2	i	CC(C)(C)c1nc2cc(Cl)c([N+](=O)[O-])cc2o1
1.3	5	2.5	0.74	-4	3.2	i	COc1ccc(C2NC(=S)NC3=C2CCCC3=C2SCCS2)cc1 (stereo unspecified)
-4.5	-4	3.9	0.65	28	5.6	i	CCOc1cccc(/C=C(\C#N)C(=O)NC2CC2)c1
-29	-2	x	x	x	x	i	CN(C)CCNc1ccc2nnn3c4ccc(O)cc4c(=O)c1c23
-1.4	2	x	0.71	x	8.9	i	O=C(Cn1cc([N+](=O)[O-])ccc1=O)NCC1COc2ccccc2O1 (stereo unspecified)
-3.0	-6	7.3	0.68	-4	4.7	x	NC(=O)c1ccc(NS(=O)(=O)c2ccccc2F)cc1
0.1	1	-3.3	0.68	-10	8.4	i	CC(C)C(=O)NC(=S)Nc1ccc(S(=O)(=O)Nc2nccs2)cc1
-1.3	-4	-5.0	0.77	40	2.5	x	Cc1cc(OC(=O)c2ccccc2)n(CCC#N)n1
-0.9	-7	-2.4	x	-64	x	i	O=C(CC1C=Cc2ccccc2N1C(=O)c1ccccc1)c1ccccc1 (stereo unspecified)
2.0	-10	-2.0	0.63	-12	3.2	x	Cc1nnsc1C(=O)Nc1cccc(Cl)c1Cl
-4.4	0	-0.1	0.68	20	2.0	i	O=C(NCSc1ccnc(SCNC(=O)c2ccccc2)n1)c1ccccc1
1.9	1	0.5	0.73	-2	0.7	i	NC(=O)c1ccc(NC(=O)CS(=O)(=O)c2cn(CC(=O)N3CCCC3)c3ccccc23)cc1
17	22	-0.1	x	x	x	i	Cc1cc(C)c2c(c1)/C(=N\N=c1\sc3ccccc3n1C)C(=O)N2
-0.4	8	5.3	0.68	x	0.6	i	COc1cc2c(cc1OC)C(c1ccccc1)N(C(=O)c1cccc(S(C)(=O)=O)c1)CC2 (stereo unspecified)
-3.1	-9	x	0.66	x	1.3	i	c1ccc(CCc2ccccn2)cc1
0.2	1	-2.1	0.68	-1	-1.4	i	CCCCCCn1nc(C(=O)N(CCCC)c2c(N)n(CCC)c(=O)[nH]c2=O)c2ccccc2c1=O
6.5	-5	3.8	0.67	98*	0.8	x	Cc1nn2cc(-c3ccc(N)cc3)nc2s1
1.6	-3	4.5	0.69	x	5.6	i	Cc1cc(C(=O)OCCN2C(=O)c3ccccc3C2=O)c2ccccc2n1
-1.9	12	7.5	0.65	-2	-92	x	COc1ccc(N2C(=O)c3ccccc3NC23CCC(C)CC3)cc1 (stereo unspecified)
12	-6	1.1	0.71	-7	3.5	x	O=C(CN1CCC(O)CC1)N1c2ccccc2C=Cc2ccccc21
-0.1	-3	-0.8	0.63	-56	2.1	i	COc1cccc(NC(=O)CN(C)C(=O)c2c(C)nn(Cc3ccc(C)cc3)c2Cl)c1
3.5	16	-3.1	0.76	-10	1.2	x	Cc1cc(C)c(CSc2ncc(-c3ccc([N+](=O)[O-])cc3)[nH]2)c(C)c1
-1.0	3	-5.1	0.74	-16	3.3	x	CCCCC(=O)Nc1cccc(NC(=O)c2ccc(Br)cc2)c1
2.5	7	-2.0	0.73	-4	-2.0	x	CCC(C)(C)C1CCC(=NNC(=O)c2ccoc2C)CC1 (stereo unspecified)
-2.4	14	-6.2	0.59	x	0.4	i	CCSc1nsc(NC(=O)Nc2ccccc2F)n1
-0.3	-8	-2.2	0.67	2	2.7	i	O=C(COC(=O)c1ccc2ccccc2n1)Nc1ccccc1Br
-1.9	11	-1.9	0.65	x	-1.4	i	CCC(Oc1ccccc1OC)C(=O)Nc1ccc2c(c1)n(C)c(=O)n2C (stereo unspecified)

Screening results (PubChem BioAssay)
